Bfl-1 A1 inh: inhibitors of the anti-apoptotic protein A1, read as caspase activation. actives 0.066% (n = 330,000). MEF A1-2A-BIM cells, Caspase-Glo 3/7 luminescence, 3 h; percent of clofoctol response, vehicle zero. AID 2462. caspase activation, % (test concentration not listed);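 active = over half of replicate activation scores above 10%, or exactly half above 10 with the replicate mean above 10; inconclusive = replicate mean below 10 yet half the replicates above 10; inactive = over half of replicates below 10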;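 also: wells of about 30 µL received 50 nL stock; many hits fall short of the cut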
B2AR ag: agonists of human beta-2 adrenergic receptor inducing internalization. P07550. Am2.2-beta2AR cells, FAP receptor internalization, flow cytometry; reference of the scale not given here. response, % (concentration not given with the values). actives 0.43% (n = 340,000). AID 504454;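 active = response above a set limit, near 3 SD of response in nonfluorescent compounds, cut at about 42% in these data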;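 also: stock transfer was 100 nL into about 11 µL; a reference agonist was the positive control; negative values mostly stem from fluorescent compounds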
ALR H2O2 inh: blocks human ALR sulfhydryl oxidase activity | P55789 | purified ALR, DTT oxidation, H2O2 HRP-luminol luminescence | inhibition, % (test concentration not listed) | actives 3.8% (n = 290,000) | AID 485317;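 active = mean and each replicate at 75% or more; inconclusive = only one of the two met; inactive = neither met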;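 also: stock transfer was 7.5 nL into about 7.5 µL; 0% = neutral wells and 100% = wells with inactivated enzyme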
T cruzi inh: T. cruzi replication inhibition; T. cruzi beta-gal in NIH3T3, luminescence, 90 h; inhibition, % (no concentration beside the values); actives 1.4% (n = 300,000);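 active = mean inhibition across valid replicates above about 55%, limit read from the data; inconclusive = mean below that limit but half or more replicates reach it; inactive = mean below it, under half of replicates reach it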;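 also: signal also drops with host cell toxicity which is not excluded here; 0% = plate median of DMSO wells and 100% = zero luminescence signal; higher percent means less beta-gal luminescence so fewer parasites; stock transfer was 50 nL into about 50 µL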
Ecoli rRNA inh: selective bacterial rRNA inhibition in E. coli; AID 720706; actives 1.6% (n = 350,000); GFP signal change (wild-type ribosome), % (no concentration beside the values); E. coli WT GFP vs humanized-ribosome RFP mutants, fluorescence, 24 h; hits give low values; DMSO median 0, no signal -100;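 active = significant combined selectivity score with lowered wild-type GFP, culture density cut under 30%, mutant RFP and density less affected; inactive = any of these conditions unmet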; also: one replicate is shown; some compounds called inactive have numbers as strong as hits
Beta apoptosis: blocks beta cell apoptosis | INS-1E cytokine-induced death, ATP luminescence, 48 h; percent of positive-control rescue, neutral wells zero | protection from apoptosis, % (test concentration not listed) | actives 0.8% (n = 300,000) | AID 435005;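 active = all replicates at 75% or more, or half of them and the mean; inconclusive = half reach 75% but not the mean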;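 also: 0% = cytokine-treated negative control wells and 100% = positive control rescue; higher means more ATP so stronger rescue from cytokine killing; wells of about 40 µL received 100 nL stock; the first replicate is given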
Calb FLC: C. albicans growth modulation with fluconazole; growth inhibition, % (concentration not given with the values); C. albicans CaCi-2 (fluconazole-resistant clinical isolate) + fluconazole, Alamar Blue growth, 48 h; actives 0.57% (n = 300,000); AID 1979;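 active = most replicates above 75%; inconclusive = exactly half above 75%; inactive = most below 75%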;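 also: all wells also contain fluconazole at 8 µg/ml as a sub-toxic cotreatment; 0% = median of DMSO wells and 100% = median of geldanamycin control wells; wells of about 8 µL received 7.5 nL stock; the first replicate is given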
LANA-H2B inh: blocks KSHV LANA binding to histone H2A/H2B; Q9QR71; cell-free LANA-H2A/H2B peptide, fluorescence polarization; inhibition, % (concentration not given with the values); actives 0.6% (n = 320,000); AID 2629; in the data active = inhibition mostly above about 10%, no sharp cut-off; inactive = mostly below about 6.7%;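 also: stock transfer was 7.5 nL into about 10 µL; 0% = median of vehicle wells and 100% = median of positive control wells; one replicate is shown; the record names a cut of 25% in any replicate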
Target sequence (Q9QR71 whole entry, looked up): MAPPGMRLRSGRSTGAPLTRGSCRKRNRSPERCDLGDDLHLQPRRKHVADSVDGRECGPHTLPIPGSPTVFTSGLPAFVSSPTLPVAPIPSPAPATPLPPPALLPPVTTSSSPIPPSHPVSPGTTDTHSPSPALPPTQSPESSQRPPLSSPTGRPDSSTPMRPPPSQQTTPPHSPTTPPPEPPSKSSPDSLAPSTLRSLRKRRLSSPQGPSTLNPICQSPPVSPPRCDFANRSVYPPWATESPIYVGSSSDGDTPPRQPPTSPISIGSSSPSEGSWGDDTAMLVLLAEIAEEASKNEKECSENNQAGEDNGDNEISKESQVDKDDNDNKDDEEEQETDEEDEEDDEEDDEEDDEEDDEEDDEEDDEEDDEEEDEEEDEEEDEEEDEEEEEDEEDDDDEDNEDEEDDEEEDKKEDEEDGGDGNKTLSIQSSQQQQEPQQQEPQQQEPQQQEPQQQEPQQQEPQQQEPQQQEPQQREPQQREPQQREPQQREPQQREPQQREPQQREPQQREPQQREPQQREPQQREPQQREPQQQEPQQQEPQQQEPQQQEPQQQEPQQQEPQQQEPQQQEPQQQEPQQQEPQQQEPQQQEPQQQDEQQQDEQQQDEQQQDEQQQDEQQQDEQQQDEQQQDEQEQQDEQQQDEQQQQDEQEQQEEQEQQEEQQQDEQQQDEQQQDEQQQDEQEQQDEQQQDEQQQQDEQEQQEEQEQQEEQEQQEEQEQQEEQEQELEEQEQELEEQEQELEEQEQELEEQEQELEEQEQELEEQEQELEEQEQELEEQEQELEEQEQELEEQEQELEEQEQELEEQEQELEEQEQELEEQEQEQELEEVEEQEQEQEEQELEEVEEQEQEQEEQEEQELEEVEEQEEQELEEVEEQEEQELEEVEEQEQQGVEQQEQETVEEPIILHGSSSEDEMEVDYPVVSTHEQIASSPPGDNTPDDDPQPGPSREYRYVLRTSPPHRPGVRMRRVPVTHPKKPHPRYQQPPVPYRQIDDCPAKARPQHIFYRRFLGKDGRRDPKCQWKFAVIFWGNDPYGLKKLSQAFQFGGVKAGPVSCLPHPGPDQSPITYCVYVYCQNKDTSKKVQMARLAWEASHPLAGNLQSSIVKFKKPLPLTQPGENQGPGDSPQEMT
Ecoli rRNA inh OD600: second read-out of Ecoli rRNA inh, no call of its own (marks repeat the call); OD600 change, %; measured here: OD600 growth;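 optical density of the mix in the first replicate; 0 = DMSO median and -100 = no signal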
Ecoli rRNA inh RFP: recorded beside Ecoli rRNA inh, whose call it bears; RFP signal change, %; measured here: RFP humanized mutant strains;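 first replicate; 0 = DMSO median and -100 = no signal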
An asterisk follows results filed as active; ? = inconclusive; · = no result given. Some of the compounds tested (hit frequency here may not be typical).

SMILES | Bfl-1 A1 inh | B2AR ag | ALR H2O2 inh | T cruzi inh | Ecoli rRNA inh | Ecoli rRNA inh OD600 | Ecoli rRNA inh RFP | Beta apoptosis | Calb FLC | LANA-H2B inh
COc1cccc(NC(=O)Nc2cccc(C(=O)O)c2)c1 | 0.9 | 1 | -2 | -11 | 11 | 10 | -0.5 | -2 | -20 | 7.0
NS(=O)(=O)c1ccc(NC(=O)C2Cc3ccccc3C(=O)O2)cc1 (configuration not stated) | -1.3 | 5 | -1 | -25 | 3 | 11 | -0.6 | -5 | -10 | 2.5
Cc1nc(=O)c(-c2ccccc2)c(C)n1-c1ccc(O)cc1 | 0.9 | -9 | -4 | -13 | · | · | · | -9 | 5 | -1.4
Cc1[nH]c2ccccc2c1C(=O)CSC(=S)N1CCOCC1 | -1.1 | -13 | -25 | 15 | -6 | -1 | 4.0 | · | 1 | 4.7
CC(C)Oc1ccccc1C1NC(=O)CCC1[N+](=O)[O-] (configuration not stated) | 0.8 | -4 | · | -14 | 11 | 11 | 1.3 | -3 | 1 | -1.6
O=C1C=C(NCc2ccc(Cl)cc2)CCC1 | -0.6 | -11 | 5 | -19 | · | · | · | -8 | -8 | 7.5
Cc1cc(/C=N/O)c(C)n1-c1cccc(Cl)c1 | 0.6 | 2 | 1 | -24 | -2 | 3 | -0.5 | 10 | 3 | -2.4
O=C(Cc1cccs1)Nc1nnc(-c2ccccc2)s1 | -2.6 | -2 | · | -5 | 3 | 4 | -0.5 | -9 | -7 | -4.4
CCOC(=O)c1c(C)c(C(=O)N2CCN(C(=O)c3ccco3)CC2)c(C)n1C | 0.0 | -4 | -1 | 0 | 7 | 3 | -10 | -4 | -1 | -0.1
O=C(COc1cccc2c1CCNC2=O)Nc1ccc(F)cc1 | · | -2 | · | 1 | 18 | 15 | 4.7 | · | -4 | ·
CC(CCc1ccccc1)NC(=O)COC(=O)c1cccs1 (configuration not stated) | -0.3 | -4 | 4 | -11 | 15 | 1 | 4.5 | 2 | -3 | 0.1
O=C(OCCN1CCCC1)C1(c2ccccc2)CCCC1 | · | -12 | · | 29 | · | · | · | · | 2 | -30
CCOC(=O)[C@H]1[C@H]2COc3ccccc3[C@@H]2N2C(=O)c3cc(F)ccc3NC(=O)[C@@]12C | 0.7 | 3 | · | · | -8 | -19 | -1.0 | 3 | · | -0.7
CCCCCC[N+](C)(C)CCSSCC[N+](C)(C)CCCCCC | 0.4 | -1 | 23 | -4 | 4 | 3 | 1.0 | -1 | 10 | -2.2
Cc1ccc(N2CCCCn3c2nc2c3c(=O)n(CC(=O)O)c(=O)n2C)cc1 | 0.9 | 3 | -2 | -5 | · | · | · | -1 | -6 | 5.0
Cc1ccc(CNS(=O)(=O)CCNC(=O)c2ccc3c(c2)OCO3)cc1 | -0.6 | 1 | 0 | -3 | 2 | -3 | 1.3 | · | 0 | -0.8
c1cnc2nc(-c3ccc4c(c3)OCO4)cn2c1 | -1.3 | -9 | · | 6 | 14 | 7 | 2.4 | -2 | -8 | 1.8
CN(Cc1ccccc1)S(=O)(=O)c1ccc(Cl)nc1 | -0.7 | -5 | -3 | -3 | · | · | · | -1 | -3 | 6.5
Cc1ccc(-c2csc3ncnc(SCC(=O)Nc4nnc(C)s4)c23)cc1 | 0.1 | -2 | -3 | -5 | · | · | · | -5 | -9 | 5.6
O=C1C2CC=C(Cl)CC2C(=O)N1CCc1c[nH]c2ccccc12 (configuration not stated) | 0.0 | 6 | 17 | -8 | -26* | -18* | 1.8* | -15 | 4 | -7.8
COC(=O)c1nnn(CC(=O)NC(=O)Nc2ccc(F)cc2)c1C(=O)OC | -0.1 | 9 | -18 | -8 | 3 | 3 | -5.2 | 0 | 0 | 3.8
CNc1c(NS(=O)(=O)c2cc(OC)ccc2OC)c(=O)oc2ccccc12 | -0.2 | 6 | 8 | -15 | 10 | 7 | -3.1 | -3 | 0 | 3.7
Cc1ccccc1N(CC(=O)NC(C)(C)C)C(=O)c1ccc(-c2ccccc2)[nH]1 | 0.5 | · | -6 | -13 | 5 | 4 | 1.3 | 4 | -6 | -5.0
CCN(C(=O)CSc1nnnn1C)c1c(N)n(Cc2ccccc2)c(=O)[nH]c1=O | -0.4 | 5 | -1 | 8 | 24 | 17 | 0.7 | -2 | -14 | -0.7
Cn1ccnc1SCC(=O)c1c[nH]c2ccccc12 | -10 | -4 | 96* | 2 | 1 | 4 | 3.4 | · | 18 | -1.0
O=C(Nc1cccc(F)c1)c1ccc(-c2ccccc2Cl)o1 | -0.9 | 4 | 1 | -13 | · | · | · | 2 | -14 | 6.3
Cn1ncc(N2CCN(C(=O)c3ccc(Cl)cc3)CC2)c(Cl)c1=O | 1.8 | -3 | · | -3 | 12 | 5 | 0.0 | -2 | 3 | 2.4
O=C(Nc1cc(Cl)ccc1Cl)c1cc(-c2ccco2)on1 | 0.4 | -8 | · | 7 | 9 | 7 | 3.8 | -3 | -4 | 0.2
C=CCOCC(O)Cn1c(N2CCCC2)nc2c1c(=O)[nH]c(=O)n2C (configuration not stated) | 1.7 | 1 | 17 | -21 | 13 | 23 | 0.4 | 0 | 4 | -0.9
Cc1cc(NC(=O)CSc2cn(CC(=O)N(C(C)C)C(C)C)c3ccccc23)no1 | 0.5 | 2 | 98* | 1 | 5 | 6 | 2.9 | 5 | -1 | 0.7
Cc1cccc(NC(=S)NCc2ccc(F)cc2)c1C | 0.0 | 3 | -1 | 3 | -6 | 2 | -1.1 | 0 | -18 | -0.1
COc1ccc(NC(=O)c2cc3c(=O)n4ccccc4nc3n2C)cc1OC | 0.1 | -1 | -24 | 1 | 12 | 10 | 5.0 | 0 | -4 | -0.1
COc1ccc(Cn2c(SCC(=O)NCc3ccco3)nc3ccsc3c2=O)cc1 | 0.1 | -4 | -16 | 10 | · | · | · | 9 | 20 | -3.4
COC(=O)c1ccc(Cn2nc(C)c(Cl)c2C)o1 | ? | 0 | -4 | 4 | · | · | · | -4 | -17 | -1.8
CCOc1ccc(NC(=O)CN(C)C(=O)c2ccc(COc3ccccc3)cc2)cc1OCC | -0.8 | 3 | · | · | · | · | · | 0 | · | 2.1
Cc1cccc(NC(=O)CCC(=O)OCC(=O)c2ccc(Oc3ccc([N+](=O)[O-])cc3)cc2)c1 | -0.2 | -1 | -3 | -12 | 14 | 11 | -1.7 | -6 | ? | -1.1
N=C1C(c2nc(-c3ccc(F)cc3)cs2)=C(O)CN1Cc1ccc(Cl)cc1 | -0.6 | 0 | -4 | 4 | · | · | · | 16 | 13 | 1.7
O=C(CN1C(=O)/C(=C2/SC(=S)N(CCS(=O)(=O)O)C2=O)c2ccccc21)Nc1cccc(Br)c1 | -1.7 | -4 | -5 | · | 9 | 0 | 3.0 | -2 | · | 4.8
O=c1cc(CN2CCN(C/C=C/c3ccccc3)CC2)c2cc(O)ccc2o1 | -0.4 | 9 | 11 | 58* | · | · | · | -3 | -11 | 0.3
CN1CCN(/N=C/c2cccc(Cl)c2Cl)CC1 | 0.6 | 0 | -2 | 62* | 9 | 7 | 2.0 | -8 | -9 | 3.7
CCOC(=O)CSc1nc2ccccc2c(=O)n1CCCCCC(=O)NCc1ccco1 | 0.0 | -5 | -7 | 12 | 1 | -1 | -2.8 | -5 | -7 | -1.6
O=C(O)CC1S/C(=N\N=C2\C(=O)Nc3ccccc32)N(c2ccc(O)cc2)C1=O (configuration not stated) | -0.1 | -6 | -4 | -4 | 1 | 4 | 2.8 | -2 | -2 | 0.9
CCc1cc(=O)oc2cc(OCC=C(C)C)ccc12 | 1.2 | -3 | -43 | -9 | · | · | · | -1 | 11 | -1.4
Cc1ccccc1C(=O)N1CCc2cc(-c3csc(NC(=O)CN4CCCC4)n3)ccc21 | -0.4 | 10 | · | 5 | -2 | -13 | 7.7 | 18 | 4 | -6.3
COc1ccc(Nc2ccc(N3C(=O)CCCC3=O)cc2[N+](=O)[O-])c(OC)c1 | -0.1 | -3 | · | -8 | · | · | · | -6 | 43 | 2.4
Nc1cc(Nc2ccccc2)c2nonc2c1[N+](=O)[O-] | -1.0 | 6 | -3 | 8 | 4 | 14 | 0.2 | 0 | -25 | -0.9
O=C(NCC1CCCN1S(=O)(=O)c1cccs1)C(=O)Nc1cccc(F)c1 (configuration not stated) | -0.7 | -4 | -4 | 0 | -3 | -12 | 1.2 | -1 | 5 | -1.1
O=C(Nc1ccc(Oc2cccc3ccccc23)cc1)c1ccco1 | 0.5 | 2 | -6 | 12 | · | · | · | 15 | -11 | 1.2
COc1cccc(Nc2nc(Nc3ccc(Cl)c(C(=O)O)c3)nc(C)c2[N+](=O)[O-])c1 | 0.3 | 4 | 20 | · | 4 | 3 | 2.4 | -5 | · | 5.9
CCn1nccc1C(=O)Nc1nccs1 | -0.9 | 1 | -1 | · | · | · | · | -6 | · | 3.7
Cc1nn(C)cc1NC(=O)Cn1nc(C(F)(F)F)cc1C1CC1 | 0.8 | 2 | -12 | -13 | 12 | 12 | -1.7 | · | -4 | 4.1
COC(=O)c1c(N2C(=O)[C@H]3[C@@H](C2=O)[C@]2(C(=O)Nc4c(C)cc(C)cc42)N2CCC[C@@H]32)sc(C)c1C | 0.5 | 0 | -5 | -16 | -6 | -4 | 13 | -1 | 15 | 2.1
CC(C)Oc1ccc(S(=O)(=O)N2CCCCC2)cc1NC(=O)C1CCCC1 | -0.1 | 1 | -4 | · | · | · | · | 6 | · | -5.1
COc1ccc(CCNCC(O)Cn2c3ccccc3c3ccccc32)cc1OC (configuration not stated) | -0.6 | 48* | -9 | 61* | -60 | -78 | -31 | -2 | -13 | 5.8
Cc1ccc(-c2nc(CS(=O)(=O)CC(=O)NCCCN(Cc3ccccc3)C(C)C)c(C)o2)cc1 | 0.2 | 0 | -3 | 27 | 5 | -3 | 3.7 | 9 | -5 | -6.2
COc1ccc(Nc2cccccc2=O)cc1 | -1.5 | -16 | 97* | 1 | · | · | · | -4 | -6 | 7.9

3 compounds out of the list, ordered by formula weight, smallest number first.
SMILES | Bfl-1 A1 inh | B2AR ag | ALR H2O2 inh | T cruzi inh | Ecoli rRNA inh | Ecoli rRNA inh OD600 | Ecoli rRNA inh RFP | Beta apoptosis | Calb FLC | LANA-H2B inh
CCn1nccc1C(=O)Nc1nccs1 | -0.9 | 1 | -1 | · | · | · | · | -6 | · | 3.7
Cc1nn(C)cc1NC(=O)Cn1nc(C(F)(F)F)cc1C1CC1 | 0.8 | 2 | -12 | -13 | 12 | 12 | -1.7 | · | -4 | 4.1
COc1cccc(Nc2nc(Nc3ccc(Cl)c(C(=O)O)c3)nc(C)c2[N+](=O)[O-])c1 | 0.3 | 4 | 20 | · | 4 | 3 | 2.4 | -5 | · | 5.9

Assay outcomes from PubChem.
